Bioassay records: PubChem BioAssay, National Center for Advancing Translational Sciences (NCATS)
LASV entry inh: qHTS for Inhibitors of binding or entry into cells for Lassa Virus; Lassa virus pseudotype entry inhibition, cell reporter; control for the full effect not named in the record; 300,000 tested, 1.2% active; Potency, µM (highest dose often 37.9 µM), for inactives: top-dose activity change, negative = inhibition, usual class: inhibitors; active means well fitted inhibition curve with a large enough effect; inconclusive means small, poorly fitted or top-dose-only effect, or effect the other way; inactive means flat fitted curve, though single readings scatter; tested in HEK293 cells; further: on the % scale 0 is the no-effect control and ±100 the full control effect; nearly all actives have a fitted effect of over 50% in size; luciferase read-out
SARS PLP yeast: qHTS of Yeast-based Assay for SARS-CoV PLP; S. cerevisiae expressing SARS-CoV PLpro, growth rescue; control for the full effect not named in the record; Potency, µM (titrated, usually from 32.9 µM), for the others: top-dose activity, positive = growth rescue; 330,000 tested, 0.19% active; AID 485353, 2010; active means well fitted rising curve with a large enough effect; inconclusive means small, poorly fitted or top-dose-only effect; inactive means no such curve, though single readings can be large or run the other way; further: 0% is about no effect; nearly all actives have a fitted effect of over 55% in size; growth read by luminescence after 48 h
StopGo reporter: High Throughput Screening for Foot and Mouth Disease Virus Antivirals | human cells with a luciferase reporter of 2A StopGo recoding; control for the full effect not named in the record | Potency, µM (top dose mostly 57.9 µM), for the others: top-dose signal change, negative = less light | 410,000 tested, 1.2% active; active = well fitted falling curve with a large enough effect; inconclusive = small, poorly fitted or top-dose-only effect; inactive = no such curve, though single readings can be large or run the other way; tested in HEK293T cells; further: on the % scale 0 is the no-effect control and ±100 the full control effect; nearly all actives have a fitted effect of over 45% in size; luciferase light after 4 h
RE007 growth inh: qHTS Assay for Inhibitors of the HIV-1 protein Vpr | 360,000 tested, 0.21% active | Potency, µM (doses to about 92.2 µM), without a hit: top-dose activity change, negative = less growth | S. pombe RE007 Vpr strain, BacTiter-Glo ATP luminescence, 24 h; control for the full effect not named in the record; active = well fitted falling curve with a large enough effect; inconclusive = small, poorly fitted or top-dose-only effect; inactive = no such curve, though single readings can be large or run the other way;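 further: on the % scale 0 is the no-effect control and ±100 the full control effect; nearly all actives have a fitted effect of over 50% in size; the assay follows cell death caused by Vpr and the record does not say whether a fall means rescue or toxicity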
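Fission yeast strain RE007, carrying one chromosomally integrated HIV-1 vpr copy, was seeded at OD 0.01 in PMG+AL medium with 23 nL pinned compound. After 24 h at 30 °C and 99% humidity, viability was read by BacTiter-Glo luminescence.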
Marburg entry inh: qHTS for inhibitors of binding or entry into cells for Marburg Virus | Marburg virus pseudotyped entry inhibition, cell reporter; control for the full effect not named in the record; about a third of the inactives were read at about 46 µM | Potency, µM (series often up to 37.8 µM), without a hit: top-dose activity change, negative = inhibition, actives largely listed as inhibitors | 300,000 tested, 1.8% active | AID 540276, 2011; active = well fitted inhibition curve with a large enough effect; inconclusive = small, poorly fitted or top-dose-only effect, or effect the other way; inactive = flat fitted curve, though single readings scatter; tested in HEK293 cells; about a fifth of its hits are not listed in these tables; further: on the % scale 0 is the no-effect control and ±100 the full control effect; luciferase read-out
NS1 function inh: qHTS Assay for Inhibitors of Influenza NS1 Protein Function. S. cerevisiae slowed by influenza A NS1, growth recovery by OD600. Potency, µM (doses to about 46.1 µM), for inactives: top-dose activity, positive = more growth. 270,000 tested, 0.4% active; active means well fitted rising curve with a large enough effect; inconclusive means small, poorly fitted or top-dose-only effect; inactive means no such curve, though single readings can be large or run the other way; further: nearly all actives have a fitted effect of over 50% in size
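S. cerevisiae expressing influenza A NS1, grown in glucose, washed, then diluted 1:100 into pH 6.0 -URA galactose medium with 23 nl compound. Growth recovery read as OD600; NS1-free strain serves as control.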
Cruzain inh noDet: qHTS Assay for Promiscuous and Specific Inhibitors of Cruzain (without detergent) | purified cruzain, Z-FR-AMC fluorescence, no detergent | Potency, µM, for the others: max response, negative = inhibition, hits mostly inhibitors | 200,000 tested, 2.3% active;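 further: plate controls were enzyme without inhibitor for no effect and buffer without enzyme for full effect; nearly all actives have a fitted effect of over 40% in size; top concentration of the series not given in the record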
Target sequence (P25779 123-467 limits assumed): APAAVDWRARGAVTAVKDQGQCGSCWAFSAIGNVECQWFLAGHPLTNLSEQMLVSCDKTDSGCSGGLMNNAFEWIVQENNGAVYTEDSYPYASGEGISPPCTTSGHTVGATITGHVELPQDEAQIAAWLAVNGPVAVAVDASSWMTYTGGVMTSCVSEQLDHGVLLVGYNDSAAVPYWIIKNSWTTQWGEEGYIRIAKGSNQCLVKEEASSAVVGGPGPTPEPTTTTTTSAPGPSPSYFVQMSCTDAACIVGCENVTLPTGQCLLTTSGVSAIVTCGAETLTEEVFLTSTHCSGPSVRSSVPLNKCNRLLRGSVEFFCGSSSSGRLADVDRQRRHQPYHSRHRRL
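Detergent-free condition (0.00005% Triton X-100) in acetate buffer pH 5.5 with DTT. 1.5 nM enzyme and compound were pre-mixed 15 min, then 2 uM Z-FR-AMC substrate added; reaction progress from fluorescence change between first and third reads (60 s).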
Cruzain inh Det: qHTS Assay for Promiscuous and Specific Inhibitors of Cruzain (with detergent). purified cruzain, Z-FR-AMC fluorescence, 0.01% Triton. 200,000 tested, 0.43% active. Potency, µM, inactives show max response, negative = inhibition, most hits filed as inhibitors. AID 1478, 2009. Cruzipain (Trypanosoma cruzi), P25779;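 further: plate controls were neutral wells for no effect and buffer without enzyme for full effect; nearly all actives have a fitted effect of over 40% in size; top concentration of the series not given in the record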
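15 min RT preincubation of 1.5 nM cruzain with compound, then 2 uM Z-FR-AMC added; kinetic AMC fluorescence, 60 s delta. Triton X-100 0.01%, pH 5.5.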
* = called active by the depositor; [ ] = remark or other dose. Unless noted, the call rests on the fitted dose curve; in most records, active means well fitted curve in the direction sought with a large enough effect; inconclusive means small, poorly fitted or top-dose-only effect, or another doubt; inactive means no such curve, though single readings can be large; an effect the other way counts as inactive or inconclusive. Potency means the concentration at half of the fitted maximal effect.

`CCCn1c(SCc2nc3sc(C)c(C)c3c(=O)[nH]2)nc2ccccc2c1=O` gave LASV entry inh -7%, SARS PLP yeast 3%, StopGo reporter 0%, RE007 growth inh 0%, Marburg entry inh 1%, NS1 function inh 9%, Cruzain inh noDet -2% and Cruzain inh Det 1.2%.
For CC(C)(C)c1cn(-c2ccccc2)c(=S)[nH]1 the results were LASV entry inh 16%, SARS PLP yeast 7%, StopGo reporter 10%, RE007 growth inh 9%, Marburg entry inh 17%, NS1 function inh 10%, Cruzain inh noDet 4% and Cruzain inh Det 1.1%.
Cc1ccc(CNC(=O)c2ccc3c(=O)n4c(-c5ccc(C)cc5)csc4nc3c2)cc1 was read as SARS PLP yeast 1%, StopGo reporter -9%, RE007 growth inh -2% and NS1 function inh -7%.
For COc1ccc(-n2c(Cc3cccc([N+](=O)[O-])c3)nc3ccccc3c2=O)cc1 the results were LASV entry inh -13%, SARS PLP yeast 4%, StopGo reporter -20%, RE007 growth inh -9%, Marburg entry inh -16%, NS1 function inh -32%, Cruzain inh noDet -10% and Cruzain inh Det -3.2%.
Screening CC(=O)c1cccc(NC(=O)c2ccc(S(=O)(=O)N3CCCCC3)cc2)c1 returned LASV entry inh -1%, SARS PLP yeast -1%, StopGo reporter inconclusive, RE007 growth inh 13%, Marburg entry inh inconclusive, NS1 function inh 8%, Cruzain inh noDet -3% and Cruzain inh Det -4.9%.
`Brc1ccc(C2=Nn3c(nnc3-c3n[nH]c4c3CCC4)SC2)cc1` gave LASV entry inh inconclusive, SARS PLP yeast 2%, StopGo reporter -16%, RE007 growth inh 39%, Marburg entry inh inconclusive, NS1 function inh 11%, Cruzain inh noDet -12% and Cruzain inh Det -6.3%.
Screening O=C(O)c1ccccc1N/N=C/C1=C(N2CCOCC2)C(=C\c2ccccc2)/CC1 returned LASV entry inh -9%, SARS PLP yeast -1%, StopGo reporter -10%, RE007 growth inh -24%, Marburg entry inh 27%[46.1 µM] and NS1 function inh 4%.
Screening C=CCOc1ccc(/C=C/C(=O)OCC(=O)NCc2cccc(OC)c2)cc1 returned LASV entry inh inconclusive, SARS PLP yeast 4%, StopGo reporter 2%, RE007 growth inh 10% and Marburg entry inh inconclusive.
`Clc1ccc(Cn2cccn2)cn1` gave LASV entry inh 4%, SARS PLP yeast 0%, StopGo reporter 3%, RE007 growth inh 2%, Marburg entry inh 14%[46.1 µM] and NS1 function inh -1%.
CCOC(=O)CNC(=O)N1[C@H](c2cccs2)[C@@H](C)C(=O)[C@@H](C)[C@@H]1c1cccs1 was read as LASV entry inh 18%[46.1 µM], StopGo reporter -9%, Marburg entry inh 2%[46.1 µM], Cruzain inh noDet 3% and Cruzain inh Det -4.9%.
`CC(=O)Nc1cc(Br)ccc1O` gave SARS PLP yeast -2%, StopGo reporter -12%, RE007 growth inh 3% and NS1 function inh -2%.
`O=C(C1CCCCC1)N(Cc1cccnc1)c1nc2c(F)cccc2s1` gave LASV entry inh -13%[46.1 µM], StopGo reporter -7%, Cruzain inh noDet 6% and Cruzain inh Det -0.5%.
For CCc1nnc(NS(=O)(=O)c2ccc(NC(=O)Nc3ccc(OC)cc3)cc2)s1 the results were LASV entry inh 14%, SARS PLP yeast 0%, StopGo reporter -8%, RE007 growth inh 4%, Marburg entry inh 13% and NS1 function inh inconclusive.
CC(=O)c1c[nH]c(C(=O)NCc2cccc(C(F)(F)F)c2)c1 was read as SARS PLP yeast -1%, StopGo reporter -6%, RE007 growth inh 0% and NS1 function inh 7%.
For O=C(CCCCC(=O)Nc1ccc(F)cc1F)Nc1ccc(F)cc1F the results were LASV entry inh -6%, StopGo reporter -12%, RE007 growth inh 5% and Marburg entry inh 9%.
CC1Nc2ccccc2C(=O)N1NS(=O)(=O)c1ccccc1 (stereo not given) was read as LASV entry inh inconclusive, SARS PLP yeast -9%, StopGo reporter -10%, RE007 growth inh 7%, Marburg entry inh inconclusive, NS1 function inh 4%, Cruzain inh noDet 15% and Cruzain inh Det -0.7%.
`CCOC(=O)c1ccccc1NC(=O)c1c(-c2ccccc2)noc1C` gave LASV entry inh inconclusive, StopGo reporter -25%, Cruzain inh noDet -6% and Cruzain inh Det -5.7%.
`COC(=O)c1ccc(CN2CCC(CO)(CCOc3ccccc3)CC2)cc1` gave SARS PLP yeast -2%, StopGo reporter -30%, RE007 growth inh 0% and NS1 function inh -16%.
`CCOC(=O)c1ccc(N2NC(=O)/C(=C/c3ccc(OC(=O)c4ccco4)c(OC)c3)C2=O)cc1` gave LASV entry inh 15%, SARS PLP yeast 8%, Marburg entry inh -33%, NS1 function inh 5%, Cruzain inh noDet 12% and Cruzain inh Det -22%.
Screening CC(C)[C@H](NC(=O)c1ccccc1)C(=O)OCC(=O)NCc1ccc2c(c1)OCO2 returned LASV entry inh 2%, SARS PLP yeast -7%, StopGo reporter -25%, RE007 growth inh 2% and Marburg entry inh inconclusive.
For Cc1ccc(N(CC(=O)Nc2ccc3c(c2)OCCO3)S(C)(=O)=O)cc1 the results were LASV entry inh 22%, SARS PLP yeast 0%, StopGo reporter 31%[activator], RE007 growth inh -3%, Marburg entry inh inconclusive and NS1 function inh 0%.
For CCC1CCCCN1CC(O)COCc1cccc(OC)c1 (stereo not given) the results were LASV entry inh -2%[46.1 µM], SARS PLP yeast -10%, StopGo reporter -12%, RE007 growth inh -1%, Marburg entry inh -14%[46.1 µM] and NS1 function inh 6%.
`Cc1ccc(C)c(S(=O)(=O)NNC(=O)c2sc(NS(=O)(=O)c3ccccc3)nc2C)c1` gave SARS PLP yeast -5%, StopGo reporter 11%, RE007 growth inh -3% and NS1 function inh 15%.
Screening O=C(COC(=O)c1cc(=O)[nH]c2ccccc12)NC1CCCCC1 returned LASV entry inh 14%, SARS PLP yeast 4%, StopGo reporter 10%, RE007 growth inh -16% and Marburg entry inh 26%.
Screening COc1nc(Oc2ccc(/C=N/O)cc2)nc(N(C)C)n1 returned LASV entry inh 6%, SARS PLP yeast -6%, RE007 growth inh 12%, Marburg entry inh inconclusive, NS1 function inh -23%, Cruzain inh noDet -1% and Cruzain inh Det -1.3%.
Screening CC(=O)c1cccc(NC(=O)CSc2nc(N3CCOCC3)nc(N3CCOCC3)n2)c1 returned LASV entry inh -1%, SARS PLP yeast 0%, StopGo reporter -8%, RE007 growth inh 0%, Marburg entry inh 15% and NS1 function inh -11%.
CCOc1cc(/C=C(\C#N)C(=O)NCC2CCCO2)ccc1OCC(N)=O (stereo not given) was read as LASV entry inh 4%, SARS PLP yeast 1%, StopGo reporter 0%, RE007 growth inh 12%, Marburg entry inh 14% and NS1 function inh 1%.
Screening O=C(CCc1nc(CN2CCN(S(=O)(=O)c3ccc(F)cc3)CC2)no1)N1CCCCC1 returned LASV entry inh -1%[46.1 µM], StopGo reporter -15%, Cruzain inh noDet 5% and Cruzain inh Det -0.1%.
For COc1ccc(-c2cc3c(=O)n(CC(=O)NCCN4CCCC4)nc(C)n3n2)cc1 the results were SARS PLP yeast -3%, StopGo reporter 17%, RE007 growth inh -13% and NS1 function inh 10%.
`COC1=C[C@@H]2[C@@H]3Cc4ccc(OC)c(O)c4[C@]2(CCN3C)CC1=O` gave StopGo reporter -18%, RE007 growth inh 10%[18.4 µM], Cruzain inh noDet 3% and Cruzain inh Det 0.7%.

For convenience, some entries already given.
For Cc1ccc(N(CC(=O)Nc2ccc3c(c2)OCCO3)S(C)(=O)=O)cc1 the results were LASV entry inh 22%, SARS PLP yeast 0%, StopGo reporter 31%[activator], RE007 growth inh -3%, Marburg entry inh inconclusive and NS1 function inh 0%.
For CCC1CCCCN1CC(O)COCc1cccc(OC)c1 (stereo not given) the results were LASV entry inh -2%[46.1 µM], SARS PLP yeast -10%, StopGo reporter -12%, RE007 growth inh -1%, Marburg entry inh -14%[46.1 µM] and NS1 function inh 6%.

(continued)
CCn1c(=O)c(=O)[nH]c2c(=O)oc3ccc(S(=O)(=O)Nc4ccc(OC)cc4)cc3c21 was read as LASV entry inh inconclusive, SARS PLP yeast 0%, StopGo reporter 0%, RE007 growth inh 12%, Marburg entry inh inconclusive and NS1 function inh -1%.
Screening N#CCCn1c(O)c(N=NC(=O)CNC(=O)c2cccs2)c2ccccc21 returned LASV entry inh -3%, SARS PLP yeast -1%, StopGo reporter -2%, RE007 growth inh -4%, Marburg entry inh 14%[46.1 µM] and NS1 function inh 1%.
`Cc1nc(C(=O)N(C)C)nn1-c1ccc([N+](=O)[O-])cc1` gave LASV entry inh 17%[46.1 µM], SARS PLP yeast 0%, StopGo reporter -17%, RE007 growth inh -10%, Marburg entry inh 6%[46.1 µM] and NS1 function inh 1%.
`Cc1ccc2cc(C#N)c(N3CCCN(C(=O)c4cnccn4)CC3)nc2c1` gave LASV entry inh -20%, SARS PLP yeast 3%, StopGo reporter -18%, RE007 growth inh 9%, Marburg entry inh 9%[46.1 µM] and NS1 function inh 0%.
`CCOC(=O)c1cccc(Nc2ncnc3ccccc23)c1` gave LASV entry inh -22%, SARS PLP yeast -33%, StopGo reporter 40µM*, RE007 growth inh 2%, Marburg entry inh inconclusive, NS1 function inh -39%, Cruzain inh noDet -5% and Cruzain inh Det -5.5%.
O=C(N/N=C/C=C/c1ccccc1)c1ccc(Br)cc1 was read as LASV entry inh 1%, SARS PLP yeast -3%, StopGo reporter 63%[activator], RE007 growth inh -3%, Marburg entry inh 11%, NS1 function inh -4%, Cruzain inh noDet 20µM* and Cruzain inh Det 3.2%.
Clc1ccc(N/N=C/c2ccncc2)cc1Cl was read as LASV entry inh inconclusive, SARS PLP yeast -86%, StopGo reporter 2%, RE007 growth inh -3%, Marburg entry inh -6%, NS1 function inh -32%, Cruzain inh noDet 7% and Cruzain inh Det -9.3%.

An unsorted share of the library (roughly 4.6% active in at least one column).
